DT40 TDP1 CPT: DT40-hTDP1 cell growth loss with CPT. chicken DT40 Tdp1-/-;hTDP1 cells + 20 nM CPT, ATP luminescence, 48 h. Potency, µM (series often up to 46.2 µM), for the others: at the top dose activity change, negative = growth inhibition, usual class: inhibitors. 420,000 tested, 12% active; note: nearly all actives have a fitted effect of over 55% in size
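Cell growth measured by CellTiter-Glo luminescence after a minimum 48 h, 37 C compound exposure with 20 nM CPT in Tdp1-knockout DT40 cells stably expressing hTDP1, seeded 400/well; qHTS titration format.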
N370S GC: N370S glucocerebrosidase modulation, Gaucher chaperone candidate | 330,000 tested, 0.092% active | Potency, µM (top dose mostly 59.4 µM), without a hit: at the top dose activity change, negative = inhibition, actives largely listed as inhibitors | P04062 | N370S GC spleen homogenate, 4MU-glucoside fluorescence | AID 2101;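 note: 0% = full enzyme activity and -100% = no enzyme basal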
An asterisk follows results filed as active; ? = inconclusive; . = not tested or not shown; & = joins results of further samples; [ ] = another dose, or the depositor's remark. Calls come from the whole dose curve; as a rule, active = well fitted curve in the direction sought with a large enough effect; inconclusive = small, poorly fitted or top-dose-only effect, or another doubt; inactive = no such curve, though single readings can be large; an effect the other way counts as inactive or inconclusive. Unless noted, % is set by controls: 0 for no effect and ±100 for the full control effect; potency is the fitted concentration of half-maximal effect.

mol,DT40 TDP1 CPT,N370S GC
O=C(O)/C=C/C(=O)N1Cc2cc3ccccc3nc2C1,-0.2%,10.6%
CCN1CCN(CCn2c(=S)[nH]c3cc4c(cc3c2=O)OCO4)CC1,-1.8%,15.8%
CCN(CC)S(=O)(=O)c1cccc(NC(=O)/C=C/c2cccc([N+](=O)[O-])c2)c1,?,-12.3%
O=C(COC(=O)c1ccc(Cl)nc1)Nc1ccc2c(c1)CCC2,-5.6%,.
Cc1cc(=O)[nH]c(Nc2cccc(Br)c2)n1,?,-0.8%
CCCc1nnc(NS(=O)(=O)c2ccccc2)s1,?,-4.6%
O=c1[nH]ncn1-c1ccccc1C(F)(F)F,-16.3%,-7.1%
COc1ccccc1NC(=O)c1cc(-c2ccc(OC)c(OC)c2)nc2ccccc12,16.4µM*,1.2%
COc1cc(-c2[nH]ncc2CN2CCN(Cc3cccs3)CC2)cc(OC)c1OC,18.4µM*,-2.3%
Cc1cccc(COc2ccc(/C=C3/C(=O)N(C)C(=S)N3C)cc2)c1,?,-4.9%
COc1ccc(C(C(=O)NC2CCCCC2)N(Cc2ccco2)C(=O)c2ccccn2)c(OC)c1 (stereo not given),6.0%,-3.6%
Cc1ccccc1C(=O)NCC(=O)OC(C)C(=O)Nc1cccc(S(=O)(=O)N2CCOCC2)c1 (stereo not given),-15.3%,-2.6%
CCc1c(C)sc(NC(=O)c2cc(CC(C)C)on2)c1C#N,-15.7%,3.3%
CC1CCCC(N2C(=O)NC(NC(=O)c3ccco3)(C(F)(F)F)C2=O)C1C (stereo not given),?,-11.3%
CCOC(=O)C1=C(C)NC(C)=C(C(=O)OCC)C1C(=O)OCC(=O)N(C)C,-5.6%,0.0%
COc1cc(OC)cc(-c2oc3cccnc3c2C#CCCO)c1,?,-2.9%
CCCCN(C)C(=O)C1CCN(C/C(C)=C/c2ccccc2)CC1,-9.6%,-4.6%
C=CCn1c(CCc2ccccc2)nnc1SCC(=O)OC,0.2%,-1.3%
Cc1ccc(OCC(O)Cn2c(N3CCCCC3)nc3c2c(=O)[nH]c(=O)n3C)cc1 (stereo not given),?,-3.2%
CC1(C)Cc2c(sc(NC(=O)c3ccc(S(=O)(=O)N4CCCC4)cc3)c2C#N)C(C)(C)N1,0.7%,-7.7%
CCC(=NCCN1CCNCC1)C1=C(O)CC(C)(C)CC1=O,-9.2%,-3.1%
CCOC(=O)Cn1nc(/C=C/c2ccc(C)cc2)ccc1=O,?,-0.1%
COc1ccc(OC)c(NC(=S)N2CCCC2)c1,4.6%,1.2%
COc1ccc(C2C(C(=O)N3CCN(C)CC3)c3ccccc3C(=O)N2C2CCCCC2)cc1 (stereo not given),-17.2%,-0.7%
C/C(=N\NC(=S)NC(C)C)c1ccc2c(c1)OCCO2,1.3µM*,15.4%
Cc1noc(C(=O)NCc2cccnc2)c1Cl,-11.9%,9.4%
N#Cc1c(N)nc2c3c(sc(=N)c2c1N)NC(=O)CC3c1ccccc1Cl (stereo not given),-88.9%,7.5%
Cc1ccc(C)c(C(=O)CCC(=O)Nc2ccc(F)cc2)c1,-0.9%,-3.4%
Nc1ncnc(Nc2ccccc2Cl)n1,0.2%,-2.5%
Cc1ccc(C(=O)CSc2nnc(-c3snnc3C)n2C2CC2)cc1,5.4%,0.2%

Whole records as entered above. Order of values: DT40 TDP1 CPT	N370S GC
`Cc1cc(=O)[nH]c(Nc2cccc(Br)c2)n1` is entered as ?	-0.8%
`COc1ccc(C2C(C(=O)N3CCN(C)CC3)c3ccccc3C(=O)N2C2CCCCC2)cc1` (stereo not given) is entered as -17.2%	-0.7%

Later entries.
mol,DT40 TDP1 CPT,N370S GC
CN(C)S(=O)(=O)Nc1ccc(NS(=O)(=O)N(C)C)c(S(=O)(=O)c2ccccc2)c1,-7.9%,0.4%
CCCn1cnc2cc(NCc3cccc(OC)c3O)ccc21,-3.2%,4.1%
COC(=O)/C=c1\sc2n(c1=O)C(C)=CC(C)(C)N=2,-5.5%,-9.3%
O=C(CN1C(=O)NC2(CCOc3ccccc32)C1=O)Nc1cccc(Cl)c1 (stereo not given),?,-6.5%
Cc1ccc(NC(=O)CSCc2ccco2)cc1,-17.0%,10.1%
C=CC[n+]1c(C)csc1Nc1cccc(Br)c1,-21.4%,6.9%
Cc1ccc(-c2nc3ccccc3[nH]2)cc1NC(=O)c1ccco1,-25.3%,3.7%
Cc1occc1C(=O)N/N=C/C=C\c1ccccc1[N+](=O)[O-],?,-9.1%
O=C(NC(=S)Nc1ccc(S(=O)(=O)Nc2ncccn2)cc1)c1ccc(Br)cc1,?,6.2%
COc1cc(NC(=O)CSc2ncnc3sc4c(c23)CCCC4)c(C(=O)O)cc1OC,-2.9%,0.0%
CCC(=O)Nc1ccc(C(=O)COC(=O)c2sc(C)nc2C)cc1,?,1.2%
Nc1c(C(=O)O)cnn1-c1ccc([N+](=O)[O-])cc1,3.8%,-9.6%
O=S(=O)(c1ccc(Br)s1)N1CCN(c2ccccc2)CC1,4.0%,-13.5%
O=C(O)CCC(=O)NCc1cn(-c2ccccc2)nc1-c1cccc(Br)c1,4.0%,-0.8%
COc1ccc2nc(NCCCNC(=O)c3cc(OC)c(OC)c(OC)c3)c(C#N)cc2c1,-28.0%,10.2%
Cc1nonc1C(=O)N/N=C/c1ccc([N+](=O)[O-])o1,5.8µM*,-15.3%
COc1cccc(CN2CC(C(=O)NC3(c4ccccc4)CC3)CCC2=O)c1 (stereo not given),9.5%,0.4%
O=C(O)c1cnn2c1NC(c1ccc(F)cc1)CC2C(F)(F)F (stereo not given),-19.5%,6.7%
C1=C(N2CCOCC2)/C(=C/c2nc3ccccc3[nH]2)CC1,?,22.6%
CCN1C(=O)[C@@H]2[C@H](C1=O)[C@@H]1C(=O)Nc3ccccc3C(=O)N1[C@@H]2c1cccc(OC)c1,-19.5%,-20.8%
O=C(NNC(=O)C(O)c1ccccc1)NC1CCCCC1 (stereo not given),-10.7%,6.3%
CC(=O)NC1C(c2nc3ccccc3s2)=C(c2ccccc2)C(=O)N1c1ccc(C)cc1 (stereo not given),?,-2.7%
O=C(Nc1ccc2snnc2c1)N1CCOCC1,-0.1%,-5.5%
O=C(CNc1cccc(S(=O)(=O)N2CCCC2)c1)Nc1ccc(F)cc1F,?,-6.5%
O=C(CCN1C(=O)c2ccccc2C1=O)N1CCOCC1,-1.2%,0.4%
c1coc(-c2nc3nc4ccccc4nc3n2-c2ccc3c(c2)OCCO3)c1,-25.7%,-7.9%
CCCCn1c(N)c(N(CCOC)C(=O)C2CCCN(C(=O)c3ccc(Cl)cc3)C2)c(=O)[nH]c1=O (stereo not given),26.9%,-2.9%
O=C(NC1CCCCC1)C1CCCN(S(=O)(=O)c2cccs2)C1 (stereo not given),-0.3%,-1.3%
Cc1ccc2oc(C(=O)NC3CCS(=O)(=O)C3)c(C)c2c1 (stereo not given),13.1%,5.8%
CN(CCOc1ccc(Cl)cc1)C(=O)c1cc([N+](=O)[O-])ccc1N1CCOCC1,20.6µM*,-4.6%
CC(=O)[C@H]1CCC2C3CC=C4C[C@@H](OS(=O)(=O)O)CC[C@]4(C)C3CC[C@@]21C (stereo not given in full),.,11.8%
COc1ccc(CCn2c(C)cc3c(c2=O)C(c2ccncc2)C(C#N)=C(N)O3)cc1OC (stereo not given),-27.3%,4.8%
Cc1cc(C)c2nc(N3CCC(C(=O)N4CCN(C(=O)c5ccco5)CC4)CC3)sc2c1,?,-2.0%
COc1ccc(C(C(=O)NC2CCCCC2)N(C(=O)c2snc(C(N)=O)c2N)c2ccccc2OC)cc1 (stereo not given),?,?
CCOC(=O)c1cccc(NC(=O)c2cccnc2)c1,?,-3.3%[2.35 µM]
Cc1ccc(C2=NN(Cc3nnc(-c4ccccc4)o3)C(=O)SC2)cc1,?,18.1%
CCOc1ncccc1C(=O)OCc1nnc(-c2ccccc2)o1,-5.1%,-6.1%
CSc1sccc1/C=N/NC(=O)c1ccncc1,-20.4%,8.9%
CC1CCCC(NC(=O)COC(=O)CCC2CCCC2)C1C (stereo not given),7.9%,4.7%
CC1CN(S(=O)(=O)c2ccc(C(=O)Nc3ccc(S(=O)(=O)N4CCOCC4)cc3)cc2)CC(C)O1 (stereo not given),?,4.0%
CC1CC(=O)C2=C(C1)Nc1nc3ccccc3n1C2c1cccnc1 (stereo not given),-4.7%,2.3%
CC(=O)N1c2ccccc2C(=O)C1N(C)c1ccc(C)cc1 (stereo not given),1.5%,-15.9%
O=C(NCCCN1CCN(C2CCCCC2)CC1)Nc1ccccc1C(F)(F)F,6.8%,0.3%
O=C(CCc1ccccc1)N1CCN(S(=O)(=O)c2cccs2)CC1,3.4%,-8.1%
CSC1=C(C#N)C(=O)NC(c2ccc(Cl)cc2)S1 (stereo not given),?,3.4%
O=C(COc1ccc(Cl)cc1)Nc1nnc(C2=COCCO2)o1,1.5%,-7.8%
Cc1nn(Cc2ccccc2Cl)c2sc(C(=O)NCCCn3ccnc3)cc12,?,-15.5%
Cc1ccc(C(=O)N/C(=C\c2ccc(-c3cccc([N+](=O)[O-])c3)o2)C(=O)NCCCN2CCOCC2)cc1,?,-17.8%
Cc1oc(/N=C/c2ccc(Cl)cc2)c(C#N)c1C,-7.9%,19.1%
Cc1c(NC(=S)NC(=O)Cc2ccccc2)cccc1C(=O)O,2.0%,0.3%
Cc1cc(NC(=O)CSCC(=O)N(C)Cc2c(F)cccc2Cl)no1,0.6%,-13.2%
CCN(CC)c1ccc(S(=O)(=O)N2CCOCC2)cc1NC(=O)CSC(=S)N1CCCC1,18.4µM*,-2.3%
CC(C(=O)NC1CCCCCC1)n1cc([N+](=O)[O-])cn1 (stereo not given),4.1%,-7.5%
Cc1c([N+](=O)[O-])c(C(=O)NC2CCCCC2)nn1C,-6.5%,-0.1%
Cc1ccc(N2C(=O)NC(NS(=O)(=O)c3ccccc3)(C(F)(F)F)C2=O)cc1C (stereo not given),8.0%&-22.7%,-2.8%
Cc1ccc(S(=O)(=O)N2CCC(C(=O)N3CC(C)OC(C)C3)CC2)cc1 (stereo not given),4.0%,-4.0%
Cc1noc(C)c1S(=O)(=O)Nc1cc(C(F)(F)F)ccc1N1CCOCC1,-29.0%,-0.7%
COc1ccc(-n2c(=O)c3ccccc3n(Cc3ccccc3F)c2=O)cc1OC,?,-4.9%
O=C(CN1CCN(c2cccc(C(F)(F)F)c2)CC1)Nc1cccc(C(F)(F)F)c1,-95.6%,-5.0%
NC(=O)c1c(NC(=O)c2cccs2)sc2c1CCCCCC2,?,11.0%

Carrying on.
mol,DT40 TDP1 CPT,N370S GC
Cc1ccc(-n2c(Cn3nc(C(F)F)cc3C(F)F)n[nH]c2=S)cc1,1.1%,24.6%
CC(NC(=O)COC(=O)Cc1ccccc1[N+](=O)[O-])c1ccccc1 (stereo not given),5.1%,-4.3%
Cc1ccc2[nH]c(=O)c(NC(N)=S)nc2c1,-21.8%,-3.7%
CC1CN(C(=O)CCC(=O)NCCCN2C(C)CCCC2C)c2ccccc2O1 (stereo not given),0.4%,2.7%
CC(NS(=O)(=O)c1ccc(Cl)c(Cl)c1)C(=O)OCC(=O)N1CCCCCC1 (stereo not given),-24.7%,.
c1ccc(-c2csc3ncnc(NCCN4CCOCC4)c23)cc1,11.6µM*,0.9%
O=C(COc1ccccc1F)Nc1ccc2c(c1)CCC2,-24.7%,.
CCOC(=O)N1CCN(CC(=O)Nc2ccc(C)cc2)CC1,-12.2%,-3.9%
CCOc1ccc(N2CC(C(=O)NCc3ccccn3)CC2=O)cc1 (stereo not given),-18.4%,-1.5%
Cc1cccc(NC(=O)N2CCCC(CNC(=O)c3ccccc3Cl)C2)c1C (stereo not given),0.1%,3.1%
O=C(c1cccc(C(=O)N2CCN(c3ccccc3F)CC2)n1)N1CCN(c2ccccc2F)CC1,?,6.0%
O=C(Nc1ccc2c(c1)CCC2)c1ccccc1,?,4.0%
O=C(NCCCNC(=O)c1cc(Cl)ccc1Cl)c1ccco1,-14.5%,-2.7%
CC(=O)c1ccc(OCC(=O)Nc2ccc3nc(C)sc3c2)cc1,-2.8%,-1.5%
COc1cc([N+](=O)[O-])cc2cc(C(=O)NC(C)(C)C)c(=O)oc12,-2.3%,2.6%
CN(C)c1cc[n+](CC(=O)c2ccc(OC(F)F)cc2)cc1,18.4µM*,5.5%
S=c1[nH]nc(CN2CCCCC2)n1-c1ccc(Cl)cc1,12.9%,-7.4%
CN(c1ccc(C(=O)O)cc1)S(=O)(=O)c1ccccc1,-3.0%,2.8%
CCn1nc(C)c(Br)c1Nc1ccc(Br)cc1,0.0%,-5.2%

Source: PubChem BioAssay

These rows are one share of the data; most or all hits stand in other tables.
